Screens: PubChem, Broad Institute
BJeLR viab HTS: compounds reducing viability of BJeLR cells. AID 2275. actives 0.64% (n = 30,000). BJeLR fibroblasts viability, CellTiterGlo ATP luminescence, 48 h; HRASV12, hTERT and SV40 LT/ST transformed. viability loss activity score, % (concentration not given with the values); in the data active means viability loss activity score above about 50%; about a fifth of its hits are not listed in these tables;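 further: higher score means fewer live cells and less ATP luminescence; stock transfer was 50 or 100 nL into about 30 µL; 0% = vehicle wells and 100% = a reference killing control; one replicate is shown; the record names a cut of 85%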
A1 inh: blocks A1 activity. MEF A1-2A-BIM cells, caspase-Glo luminescence, 3 h; percent of clofoctol signal, DMSO as zero. caspase activation, % (no concentration beside the values). actives 0.51% (n = 21,000);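 active means most replicate scores above 10, or exactly half above 10 with mean activity above 10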;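 further: effector caspase 3 and 7 activity cleaving a DEVD luciferin substrate; 50 nL library stock added to about 30 µL; numbers are from one replicate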
Starred values were filed as active, the others as inactive; nt = not tested or not shown.

smiles	A1 inh	BJeLR viab HTS
O=C(Nc1ccccc1)/C(=C/c1ccccc1)NC(=O)c1ccccc1	0.0	-5.3
Cc1ccc(C)c(N2CCN(CCCNC(=O)c3nnc(Cc4c(F)cccc4Cl)o3)CC2)c1	nt	21.2
C[C@H]1CN([C@@H](C)CO)C(=O)c2cc(NC(=O)CCCCCC(=O)Nc3ccccc3N)ccc2O[C@H]1CN(C)S(=O)(=O)c1ccc(Cl)cc1	nt	-5.8
CNC[C@@H]1Oc2ccc(NS(C)(=O)=O)cc2C(=O)N([C@H](C)CO)C[C@@H]1C	0.8	0.6
CC1(C)CC(=O)C2=C(C1)C(c1cccnc1)Nc1ccc3ccccc3c12 (stereo not given)	-0.2	-4.4
C[C@@H]1CN([C@@H](C)CO)C(=O)c2cccc(NS(C)(=O)=O)c2O[C@H]1CN(C)Cc1ccccc1	nt	2.3
C[C@H](CO)N1C[C@H](C)[C@H](CN(C)C)Oc2ccc(NC(=O)Nc3ccc(C(F)(F)F)cc3)cc2C1=O	-0.8	0.6
C/C=C/c1ccc(O)cc1C(=O)C(C)O (stereo not given)	-0.1	-5.7
Cc1noc(C)c1-c1nc(CS(=O)(=O)Cc2ccc(Cl)cc2)no1	0.4	4.5
O=C(CCCn1c(=S)[nH]c2c(sc3ccccc32)c1=O)NC1CCCCCC1	nt	-0.2
O=C1NC(c2ccccc2)(C(F)(F)F)SC2=NCCCN12 (stereo not given)	-0.1	3.0
CCOC(=O)C(C)Sc1ncnc2nc[nH]c12 (stereo not given)	nt	1.0
C[C@H]1CN([C@@H](C)CO)C(=O)c2cccc(NC(=O)Nc3ccc(F)cc3)c2O[C@H]1CN(C)Cc1ccccc1	nt	11.0
CC1CN=C(NS(=O)(=O)c2ccccc2)N1 (stereo not given)	0.4	-0.4
COc1ccc(S(=O)(=O)Nc2cccc3c2O[C@@H](CN(C)Cc2ccc(-c4ccccc4)cc2)[C@H](C)CN([C@@H](C)CO)C3=O)cc1	nt	-0.6
C[C@@H]1CN([C@@H](C)CO)C(=O)c2cc(NS(=O)(=O)c3ccccc3)ccc2O[C@H]1CN(C)S(C)(=O)=O	-0.2	-1.8
C[C@H](CO)N1C[C@H](C)[C@@H](CN(C)Cc2ccc(Oc3ccccc3)cc2)Oc2c(NC(=O)NC3CCCCC3)cccc2C1=O	nt	2.1
CSC(=Nc1ccc(Cl)cc1)NC#N	-1.4	0.2
Nc1ccc(N=Nc2ccccc2)c(N)n1	-3.9	-2.2
CC(C)NC(=O)Nc1ccc2c(c1)C(=O)N([C@H](C)CO)C[C@@H](C)[C@H](CN(C)C(=O)Nc1ccc(C(F)(F)F)cc1)O2	0.8	0.6

In a second layout: entries from further up
Values run as follows: A1 inh | BJeLR viab HTS
CC1CN=C(NS(=O)(=O)c2ccccc2)N1 (stereo not given)
→ 0.4 | -0.4
COc1ccc(S(=O)(=O)Nc2cccc3c2O[C@@H](CN(C)Cc2ccc(-c4ccccc4)cc2)[C@H](C)CN([C@@H](C)CO)C3=O)cc1
→ nt | -0.6
C[C@@H]1CN([C@@H](C)CO)C(=O)c2cc(NS(=O)(=O)c3ccccc3)ccc2O[C@H]1CN(C)S(C)(=O)=O
→ -0.2 | -1.8
C[C@H](CO)N1C[C@H](C)[C@@H](CN(C)Cc2ccc(Oc3ccccc3)cc2)Oc2c(NC(=O)NC3CCCCC3)cccc2C1=O
→ nt | 2.1
CSC(=Nc1ccc(Cl)cc1)NC#N
→ -1.4 | 0.2

Later entries:
smiles	A1 inh	BJeLR viab HTS
Cc1nc2c(ccc3nc(NC(=O)c4cccc(Oc5ccccc5)c4)sc32)s1	-0.3	-1.5
Cc1onc(-c2c(Cl)cccc2Cl)c1NC(=O)OCCOc1cc(C(F)(F)F)ccn1	-0.1	-1.7
COc1ccc(NC(=O)CC2(CC(=O)O)CCCC2)cc1	nt	4.8
C[C@@H]1CN([C@@H](C)CO)C(=O)c2cccc(NC(=O)C3CC3)c2O[C@@H]1CN(C)S(=O)(=O)c1ccc(Cl)cc1	nt	1.2
CCc1ccc(-c2nc3ccccc3c(=O)o2)cc1	-6.3	4.9
CCc1ccc(OCCCC(=O)Oc2ccc3c(c2)oc(=O)c2ccccc23)cc1	-2.1	1.9
Cc1ccc2c(c1)C(=O)CCCC1C(=O)N2CCN1C(=O)c1ccccc1 (stereo not given)	0.2	-6.0
C[C@H]1CN([C@@H](C)CO)C(=O)c2cc(NC(=O)Nc3ccc(C(F)(F)F)cc3)ccc2O[C@H]1CN(C)C(=O)Nc1ccc(F)cc1	-0.7	5.9
O=C(O)CSc1c2c(nc3cc(C(=O)NCc4ccc(F)cc4)ccc13)CCCC2	nt	0.2
Cc1ccc(C(=O)Oc2ccc3oc(=O)sc3c2)cc1	-1.4	-3.7
Nc1cc2ncnc(Nc3cccc(Br)c3)c2cc1N	2.9	-0.8
Cc1noc(C)c1NC(=O)N(C)C[C@H]1Oc2c(NS(=O)(=O)c3cccs3)cccc2C(=O)N([C@H](C)CO)C[C@@H]1C	nt	2.9
COc1ccc(S(=O)(=O)Nc2ccc3c(c2)C(=O)N([C@H](C)CO)C[C@H](C)[C@H](CN(C)S(=O)(=O)c2ccccc2)O3)cc1	0.2	2.7
CS(=O)(=O)NCCOc1ccccc1	0.3	-3.9
CCNC(=O)c1cccc(OC)c1	1.0	8.3
CCOC(=O)/C=C1\CC(=O)Nc2cc(C)c(C)cc2N1	0.2	1.3
C[C@@H]1CN([C@@H](C)CO)C(=O)c2cc(NS(=O)(=O)c3cccs3)ccc2O[C@@H]1CN(C)S(=O)(=O)c1ccccc1	0.1	0.5
CCOc1ccc(NC(=O)CC(C)Cc2cc(C)cc(C)c2)cc1 (stereo not given)	-0.6	-1.8
Cc1cc(C)c(C(=O)/C=C(\N2CCCC2)C(F)(F)F)c(=O)[nH]1	nt	-0.4
Cc1ccc(S(=O)(=O)Nc2ccc3c(c2)C(=O)N([C@H](C)CO)C[C@H](C)[C@H](CN(C)S(=O)(=O)c2c(C)noc2C)O3)cc1	0.3	1.5
CC1CCCCN1C(=O)Nc1cccc(C(F)(F)F)c1 (stereo not given)	0.2	-0.8
Cc1cc(-c2ccccn2)n[nH]c1=O	-0.6	0.0
N=C1/C(=C/c2ccc(SCc3ccccc3)o2)C(=O)N=C2SC=CN12	nt	-2.3
COC(=O)C1=C(C)Nc2c(c(=O)n(C)c(=O)n2C)C1c1cccc(OCc2ccccc2)c1 (stereo not given)	0.1	6.0
CCOC(=O)CSc1nc2cc(Cl)c(Cl)cc2n1CC	-0.2	3.2
COc1cccc(-c2nn3c(Cc4ccccc4)nnc3s2)c1	nt	-8.3
Cc1noc(C)c1S(=O)(=O)N(C)C[C@@H]1Oc2c(NC(=O)C3CC3)cccc2C(=O)N([C@@H](C)CO)C[C@@H]1C	nt	0.5
CCOC(=O)Cn1c(=O)oc2cc(S(=O)(=O)NCC3CCCO3)ccc21 (stereo not given)	nt	2.7
C[C@@H]1CN([C@H](C)CO)C(=O)c2cc(NC(=O)Nc3cccc4ccccc34)ccc2O[C@@H]1CN(C)Cc1ccc2c(c1)OCO2	0.2	0.3
O=C1CON(c2ccc(Cl)c(Cl)c2)C(=O)N1	0.1	-1.5
C[C@@H]1CN([C@H](C)CO)C(=O)c2cc(NC(=O)Cn3cnnn3)ccc2O[C@H]1CN(C)Cc1ccc(Cl)c(Cl)c1	-0.6	-2.6
O=C(Cn1ncc2ccccc21)NC1CCCc2ccccc21 (stereo not given)	0.3	0.9
C[C@@H]1CC[C@]2(C(=O)O[C@@H]3O[C@H](CO)[C@@H](O)[C@H](O)[C@H]3O)CC[C@]3(C(=O)O)C(=CCC4[C@@]5(C)CC[C@H](OC6OC[C@@H](O)[C@H](O)[C@H]6O)C(C)(C)C5CC[C@]43C)C2[C@H]1C (stereo not given in full)	-0.6	2.1
COc1ccc(OC)c(NC(=O)C2CCCNC2=O)c1 (stereo not given)	0.1	4.8
O=C(Oc1ccccc1/C=C1/N=C2CCCCCN2C1=O)c1ccccc1Cl	-2.4	-3.7
CCOc1cc(-c2cc(C)c3c(ccc4ccccc43)n2)ccc1O	nt	-1.8
O=c1c(-c2ccccc2)c(O)cc(-c2ccc(F)cc2)n1-c1ccccc1	-0.5	6.1
S=C(c1ccc(Cl)cc1)N1CCCCC1	0.6	-3.2
CC(C)NC(=O)N(C)C[C@H]1Oc2c(NC(=O)Nc3ccc4c(c3)OCO4)cccc2C(=O)N([C@@H](C)CO)C[C@H]1C	nt	3.5
COc1ccccc1C1C(C#N)=C2N=C(N)c3ccccc3N2C2=C1C(=O)CCC2 (stereo not given)	nt	-0.9

2 of the compounds above, field by field.
Structure: CC(C)NC(=O)N(C)C[C@H]1Oc2c(NC(=O)Nc3ccc4c(c3)OCO4)cccc2C(=O)N([C@@H](C)CO)C[C@H]1C
  A1 inh = nt; BJeLR viab HTS = 3.5

Structure: O=C(Cn1ncc2ccccc21)NC1CCCc2ccccc21 (stereo not given)
  A1 inh = 0.3; BJeLR viab HTS = 0.9

Additional entries follow:
smiles	A1 inh	BJeLR viab HTS
COc1ccc(S(=O)(=O)Nc2ccc3c(c2)C(=O)N([C@@H](C)CO)C[C@@H](C)[C@H](CN(C)CC2CCCCC2)O3)cc1	1.2	-4.3
N=C1/C(=C/c2ccc(OCCOc3ccccc3)c(Cl)c2)C(=O)N=C2SC=CN12	-1.4	4.6
S=c1nccc(-c2ccc3c(c2)CCO3)[nH]1	0.0	-2.1
COc1c(F)c(F)c(C(=O)O)c(Nc2ccc(C)cc2C)c1F	nt	6.9
CSc1nnc(Cn2c(=O)sc3ccccc32)n1-c1ccccc1C	0.3	-5.6
C[C@@H]1CN([C@H](C)CO)C(=O)c2cccc(NC(=O)Nc3ccccc3)c2O[C@@H]1CN(C)CC1CCCCC1	nt	-5.9
Cc1ccc(S(=O)(=O)Nc2cccc3c2O[C@H](CN(C)C(=O)Nc2c(C)noc2C)[C@H](C)CN([C@H](C)CO)C3=O)cc1	nt	1.5
Cc1cc(NC(=O)c2cccc(S(=O)(=O)N3CCOCC3)c2)no1	0.2	-1.3
O=c1[nH]c2ccccc2c2nc(-c3ccccc3)nn12	nt	-5.5
C[C@H](CO)N1C[C@H](C)[C@@H](CN(C)CC2CC2)Oc2c(NC(=O)Nc3ccc4c(c3)OCO4)cccc2C1=O	nt	3.3
O=C(NCCc1cccs1)N1CCN(C2c3ccccc3-c3ccccc32)CC1	0.3	-0.2
COc1ccc(CCNC(=O)Nc2ccc(Cl)cc2)cc1OC	-0.2	1.0
COc1ccc(NC(=O)N(C)C[C@H]2Oc3ccc(NC(=O)Nc4ccc(C(F)(F)F)cc4)cc3C(=O)N([C@H](C)CO)C[C@H]2C)cc1	0.1	6.6
C/C(=C/COc1c(OC2OC(CO)C(O)C(O)C2O)ccc2ccc(=O)oc12)CO (stereo not given)	0.0	1.1
O=C(NCc1ccc2c(c1)OCO2)c1sc(=S)n2c1[nH]c(=O)c1ccccc12	-0.7	-2.2
O=C(NCCCc1ccccc1)C1c2ccccc2Oc2ccccc21	nt	-3.6
COc1ccccc1OCC(O)CO (stereo not given)	-0.2	0.6
C[C@@H]1CN([C@H](C)CO)C(=O)c2cccc(NS(=O)(=O)c3cccs3)c2O[C@H]1CN(C)C(=O)Nc1ccc(F)cc1	nt	1.0
Cc1ccc(S(=O)(=O)NC2=NCN(C)CN2)cc1	0.2	-1.0
CC(C)NC(=O)N(C)C[C@@H]1Oc2ccc(NC(=O)Nc3ccc(C(F)(F)F)cc3)cc2C(=O)N([C@@H](C)CO)C[C@H]1C	2.0	0.4
O=C(OC1(C#CCN2CCCCC2)CCCCC1)c1ccccc1	1.8	7.1
COc1ccc(NC(=O)c2ccn[nH]2)cc1	-5.2	14.6
O=C(Nc1ccc(-c2cnco2)cc1)c1ccc(F)cc1F	-5.1	9.2
COc1ccc(S(=O)(=O)N(C)C[C@H]2Oc3c(NS(=O)(=O)c4cn(C)cn4)cccc3C(=O)N([C@H](C)CO)C[C@@H]2C)cc1	nt	-3.3
Cc1cc(C)c(N=C(N)NN)cc1C	0.2	-2.9
CCOC(=O)c1cnc2ccc(OCC)cc2c1NC(C)CC (stereo not given)	-1.6	10.7
Cc1oc(S(=O)(=O)N2CCCC2)cc1C(=O)Nc1ccccc1	nt	4.7
C[C@@H]1CN([C@H](C)CO)C(=O)c2cc(NC(=O)Nc3ccc4c(c3)OCO4)ccc2O[C@H]1CN(C)C(=O)Nc1ccc(F)cc1	0.6	5.2
CCOc1ccc(-n2c(SCC)nc3c([nH]c4ccccc43)c2=O)cc1	nt	-3.3
Cc1cn(S(=O)(=O)c2ccc(F)cc2)cn1	-0.3	5.1
CC(C)C(O)(C(=O)OCc1ccc(O[C@@H]2O[C@H](CO)[C@@H](O)[C@H](O)[C@H]2O)cc1)C(C)O (stereo not given in full)	0.2	1.6
N=c1oc2ccccc2cc1C(=O)Nc1ccc(F)cc1	-6.7	5.1
Cc1noc(C)c1NC(=O)Nc1ccc2c(c1)C(=O)N([C@@H](C)CO)C[C@@H](C)[C@@H](CN(C)S(=O)(=O)c1ccc(F)cc1)O2	0.2	0.6
C[C@H]1CN([C@@H](C)CO)C(=O)c2cc(NC(=O)Cc3ccccc3)ccc2O[C@@H]1CN(C)S(=O)(=O)c1ccc(Cl)cc1	-0.4	-0.8
CC(C)NC(=O)Nc1ccc2c(c1)C(=O)N([C@H](C)CO)C[C@@H](C)[C@H](CN(C)S(=O)(=O)c1ccccc1)O2	0.2	-1.4
N#C[C@@H](O[C@@H]1O[C@H](CO)[C@@H](O)[C@H](O)[C@H]1O[C@@H]1O[C@H](CO)[C@@H](O)[C@H](O)[C@H]1O)c1ccccc1	0.3	-4.9

An excerpt. The share of hits here may be higher or lower than overall.
